High-throughput results (PubChem BioAssay)
Vaccinia mCherry = vaccinia inhibition (mCherry reporter); 310,000 tested, 0.63% active; AID 720579; Vaccinia virus mCherry reporter infection, fluorescence; about a quarter of the inactives have no number; Potency, µM (top dose mostly 36.5 µM), without a hit: at the highest dose activity change, negative = inhibition, usual class: inhibitors; active = well fitted inhibition curve with a large enough effect; inconclusive = small, poorly fitted or top-dose-only effect; inactive = no such curve, though single readings can be large or run the other way; tested in A549 cells; also: nearly all actives have a fitted effect of over 35% in size; inactives centre near -10
VACV Venus inh = inhibitors of vaccinia virus (Venus reporter) | 330,000 tested, 0.46% active | Potency, µM (doses to about 36.5 µM), for inactives: at the top dose activity change, negative = inhibition, usual class: inhibitors | Vaccinia virus Venus reporter expression, fluorescence; active means well fitted inhibition curve with a large enough effect; inconclusive means small, poorly fitted or top-dose-only effect; inactive means no such curve, though single readings can be large or run the other way; tested in A549 cells; also: nearly all actives have a fitted effect of over 30% in size; inactives centre near -10
* = called active by the depositor; i = inactive; ? = inconclusive; · = not tested or not shown; & = joins results of further samples; [ ] = remark or other dose. % is scaled to controls: 0 for no effect and ±100 for the full control effect; potency is read from the fitted curve at half-maximal effect. Not a hit list; any-hit rate near 0.82%.

Molecule,VACV Venus inh,Vaccinia mCherry
Cc1cccc(C)c1NC(=O)CCS(=O)(=O)c1cccc2nsnc12,-3%,-13%
Cc1ccc(-n2ncc3c(NNC(=O)Cc4ccccc4)ncnc32)cc1,-6%,-16%
CCC(C)NC(=O)Cn1nc(C(F)(F)F)c2c1CCCC2 (configuration not stated),-20%,i
COc1cc(-c2cc(NC=O)c3ncc(-c4cccc(C(=O)N(C)C)c4)n3c2)cc(OC)c1OC,-12%,?
CCOc1ccc2nc(N3CCCC(C(=O)N4CCN(CC)CC4)C3)sc2c1 (configuration not stated),-13%,-13%
CCS(=O)(=O)Nc1cccc(C(=O)CC2(O)C(=O)Nc3ccccc32)c1 (configuration not stated),-8%,-18%
CCn1cc(C(=O)N2CCN(c3ccc([N+](=O)[O-])cc3)CC2)c(=O)c2ccc(C)nc21,-29%,-13%
COc1cc(OC)cc(-c2nnc(SCc3cccc(C(=O)O)c3)o2)c1,-8%,-15%
CCN(c1cccc(C)c1)S(=O)(=O)c1ccc2c(c1)oc(=O)n2C,-4%,-12%
Cc1ccccc1NC(=S)N(Cc1cccs1)C1CCCCC1,-15%,-21%
CC1(C)CC(=O)C2=C(C1)NC(Nc1nc3ccccc3o1)=NC2c1cccc(O)c1 (configuration not stated),?,-9%
COCCCNC(=O)Cn1cnc2sc(C)c(S(=O)(=O)N3CCN(c4ncccn4)CC3)c2c1=O,-14%,-21%
CCCCCSc1nc2c(c(=O)[nH]c(=O)n2C)n1CC,?,?
O=C(Nc1cc(Cl)cc(Cl)c1)c1ccc(F)c(S(=O)(=O)N2CCCC2)c1,-20%,-19%
COc1cc(CN(C(=O)c2ccc(C)cc2)c2ccccn2)cc(OC)c1OC,1%,-9%
Cc1ccccc1NC(=O)COC(=O)c1c[nH]c(=O)[nH]c1=O,2%,i
CN(C)c1ccc(CNc2ccc3c(c2)ncn3C(C)(C)C)cc1,-27%,-27%
CN1CCN(CP(=O)(N2CCOCC2)N2CCOCC2)CC1,-11%,-8%
O=C(NCC(=O)N(CC1CCCO1)C(C(=O)NC1CCCC1)c1ccc(F)cc1)c1ccco1 (configuration not stated),-3%,-10%
CCOC(=O)[C@]12CCCC=C1N(Cc1cccc3ccccc13)C(=O)[C@H](CC(=O)NCc1cccc(C(F)(F)F)c1)C2,-25%,-26%

The final four entries of the part above open the next one.
Molecule,VACV Venus inh,Vaccinia mCherry
CN(C)c1ccc(CNc2ccc3c(c2)ncn3C(C)(C)C)cc1,-27%,-27%
CN1CCN(CP(=O)(N2CCOCC2)N2CCOCC2)CC1,-11%,-8%
O=C(NCC(=O)N(CC1CCCO1)C(C(=O)NC1CCCC1)c1ccc(F)cc1)c1ccco1 (configuration not stated),-3%,-10%
CCOC(=O)[C@]12CCCC=C1N(Cc1cccc3ccccc13)C(=O)[C@H](CC(=O)NCc1cccc(C(F)(F)F)c1)C2,-25%,-26%
CCc1ccc(-n2c(=O)c3c(C)c(C(=O)N(C)C)sc3n(Cc3ccccc3F)c2=O)cc1,-19%,-17%
CCCCN1C(=O)/C(=C/C=C2\Oc3ccccc3N2CC)SC1=S,126%[activator],-12%
O=C1CC(NS(=O)(=O)c2ccc([N+](=O)[O-])cc2)CN1c1ccc2c(c1)OCCO2 (configuration not stated),-17%,-3%
CC(C)COc1ccc(C(=O)NCC2(N3CCN(C)CC3)CCCCC2)cc1,-21%,-19%
N#Cc1c(Nc2ccccc2)c(C=NCCN2CCOCC2)c[nH]c1=O,2%,·
CCOC(=O)NC(=S)Nc1c(C)n(C)n(-c2ccccc2)c1=O,0%,-4%
O=C(NCc1cc(Br)cc(Br)c1OC(=O)c1ccccc1[N+](=O)[O-])c1ccccc1,-17%,-27%
COC(=O)c1[nH]c2c(c1C(=O)OC)CCc1ccccc1-2,-4%,-9%
CCCC(=O)N1CCC1(C)C(=O)Nc1ccc2nccnc2c1 (configuration not stated),13%,-4%
CCOC(=O)c1sc(=NC(=O)c2ccco2)n(C)c1C,-13%,i
CNC[C@H](O)c1ccc(O)c(O)c1,-12%&-8%,-6%
COc1ccc(C(CNC(=O)c2cccc(S(=O)(=O)Nc3ccc(F)cc3)c2)N(C)C)cc1 (configuration not stated),-14%,-22%
CC(=O)N1CCc2cc(Br)cc(S(=O)(=O)NCCc3ccc(Cl)cc3)c21,7%,-7%
Cc1cc(C)n2[nH]c(=O)c(N=Nc3ccccc3)c2n1,-19%,-9%[1.46 µM]
Cc1ccc(NC(=S)N2CC(C)OC(C)C2)cc1C (configuration not stated),-16%,-25%
O=C(CN1C(=O)/C(=C\c2cccc(F)c2)Oc2ccccc21)N1CCN(c2ccccn2)CC1,-9%,i
CCOc1ccccc1C(=O)NCc1ccc2c(c1)CCN2C(=O)c1ccccc1,-24%,?
Cc1ccc(C(=O)n2nnc3ccccc32)cc1[N+](=O)[O-],-18%,-8%
O=C(NC1CCN(C(=O)c2ccccc2Br)CC1)c1ccccc1,1%,i
COc1ccc(CCNC(=O)c2cc3c(-c4ccc(OC)c(OC)c4)nn(C)c3s2)cc1OC,-12%,-12%
CN(C)C(=O)c1ccc(-c2nc(N(C)Cc3ccco3)c3ccccc3n2)cc1,-14%,i
Cc1nc(NC(=O)C2CC2)sc1C(=O)Nc1cccc(Cl)c1,-21%,i
NCCCC[C@@H](C(=O)N1CCNCC1)n1cc([C@@H](N)CO)nn1,-18%,i
COc1ccc(-c2nc(CN3C(=O)CN=C(c4ccccc4)c4cc(Cl)ccc43)c(C)o2)cc1,-24%,-24%
COc1cc(F)ccc1-c1csc(C(NC(C)=O)c2ccccc2)n1 (configuration not stated),-21%,i
Cc1ccc2c(c1)N(C(=O)CCC(=O)NCCCN1CCN(C)CC1)CCO2,-15%,?
CC(=O)N1/C(=C/c2ccc(N(C)C)cc2)C(=O)c2ccccc21,-14%,-6%
CCN1c2ccccc2-c2nc(SCC(=O)NCc3ccc(C)cc3)ncc2S1(=O)=O,0%,-14%
CCCCN(C(=O)c1cc(-c2ccco2)nc2ccccc12)c1c(N)n(CCCC)c(=O)[nH]c1=O,9%,-4%
CCNC(=O)C1CCCN(C(=O)c2c(-c3ccccc3)noc2C)CC1 (configuration not stated),-6%,10%
CCCCn1nnnc1C1(C)CCC(=O)N1CC(F)(F)F (configuration not stated),2%,-8%
CCOCCCNC(=O)Nc1cc(C(=O)NCc2ccc(C(C)C)cc2)ccc1N1CCCC1,-25%,-22%
Cn1cnc([N+](=O)[O-])c1Oc1cccc2ccccc12,?,-28%
CC1(C)C(=O)C2(C(=O)NCc3ccccc3)CCC1C2 (configuration not stated),-19%,-1%
Cc1ccccc1NC(=O)c1cccc(C(F)(F)F)c1,-10%,-13%
COc1ccc(NC(=O)N2CCCC2C(=O)Nc2ccc(C)cc2C)cc1 (configuration not stated),-4%,-11%
O=C(CSc1nc2ncc(Br)cc2[nH]1)Nc1ccccc1-c1ccccc1,0%[7.34 µM],i[7.34 µM]
COc1cc(-c2ccno2)ccc1S(=O)(=O)N1CCN(c2cccc(Cl)c2)CC1,1%,-10%
N=c1nc(N)nc2n1NC(c1ccc(F)cc1)=CS2,?,?
Cc1cc(NC(=O)CN2C(=O)S/C(=C\c3ccccc3)C2=O)no1,4%,-12%
C=CCOC(=O)C1=C(C)NC(SCC(N)=O)=C(C#N)C1c1cccs1 (configuration not stated),-20%,-15%
O=C(COc1ccccc1Cl)N1CCc2ccccc21,-16%,5%
COC(=O)c1ccc(NS(=O)(=O)c2ccc(S(=O)(=O)N3CCOCC3)cc2)cc1,-16%,i
Cc1ccc(N(C)S(=O)(=O)c2ccc3[nH]c4c(c3c2)CCCC4)cc1,-11%,-14%
CCOC(=O)c1ccc(NC(=O)CCS(=O)(=O)c2ccc(C)cc2)cc1,7%,-3%
CCCN(CCC)C(=O)Cn1c(=O)n(-c2ccc(OC)cc2OC)c(=O)c2c3c(sc21)CCC3,-18%,-13%
Cc1ccc(NC(=O)CSCC(=O)NCCc2ccccc2)cc1,-15%,-14%
O=C1ON=C(c2cccc([N+](=O)[O-])c2)/C1=C/c1ccc(O)cc1,-14%,-13%
CCOC(=O)c1cc2n(n1)C(C(F)(F)C(F)(F)F)CC(C)N2 (configuration not stated),?,·
COCCNC(=O)NC(=O)CN1CCN(C(c2ccccc2)c2ccccc2)CC1,-13%,i
CNc1nc(N2CCCN(C)CC2)nc2cc(OC)c(OC)cc12,-10%,-14%
CN(C)/C=N/C(=S)Nc1ccccc1F,-8%,-24%
COc1cc(NC(=O)Nc2nnc([C@H]3C[C@H](O)[C@@H](CO)O3)s2)cc(OC)c1OC,8%,24%
COC(=O)c1ccccc1NC(=O)CCCN1C(=O)C(c2ccccc2)Oc2cccnc21 (configuration not stated),6%,3%
COC(=O)c1ccc2c(c1)N(Cc1cc(C)ccc1C)C(=O)c1ccccc1S2,-1%,-5%
O=C(Nc1ccc(S(=O)(=O)N2C[C@@H]3C[C@@H](C2)c2cccc(=O)n2C3)cc1)c1ccc(F)cc1,-21%,i
c1ccc(-c2cc(-c3nnc4sc(-c5ccccn5)nn34)[nH]n2)cc1,-23%,?
Cc1nc2ccccn2c1-c1nnco1,25%,·
CCOc1ccc(CCN2C(=S)N([C@@H](Cc3ccccc3)CN3CCC[C@@H]3CN3C(=S)NC[C@@H]3Cc3ccc(O)cc3)C[C@@H]2CC(C)C)cc1,-26%,-15%
COc1ccccc1N1CCN(C(=O)CSc2nc(C)c(Cc3ccccc3)c(=O)[nH]2)CC1,-20%,?

(continued)
Molecule,VACV Venus inh,Vaccinia mCherry
Oc1ccc(Cc2ccccc2Cl)c(O)c1,-15%,-27%
Cc1cc(/C=C(/C#N)C(=O)O)c(C)n1CCC(C)C,-1%,-13%
COC(=O)[C@H]1C[C@@]2(O)CN(S(=O)(=O)c3ccc(C)cc3)C[C@@]2(OC(=O)NC2CCCC2)C[C@H]1C(=O)OC,-13%,i
CCOc1cc(S(=O)(=O)Nc2ccccc2CC)ccc1Cl,-14%,-3%
CCCN(C(=O)c1ccc(N2CCCC2=O)cc1)C1CCS(=O)(=O)C1 (configuration not stated),1%,-5%
O=C(N/N=C/c1ccncc1)c1cc2c(ccc3ccccc32)o1,-6%,·
CC(=O)N1N=C(c2ccccc2OC(=O)/C=C/c2ccccc2)CC1c1ccccc1 (configuration not stated),-20%,-1%
CN(C)C(=O)c1ccc(-c2nc(NCc3cccs3)c3ccccc3n2)cc1,2%,i
COc1cccc(N2CCN(C(=O)CCNS(=O)(=O)c3ccc4c(c3)c(=O)n(C)c(=O)n4C)CC2)c1,-16%,-4%
COCCSc1nc2sc3c(c2c(=O)n1-c1ccccc1)CCN(C)C3,-2%,i
Cc1ccc(CN2C(=O)CSC2c2cccnc2)cc1 (configuration not stated),-18%,i
C=C(C)Cn1c(-c2ccccc2)nc2ccccc21,-11%,-10%
COc1ccc(NC(=O)Cn2nnc3ccccc32)c([N+](=O)[O-])c1,-8%,-6%
N#Cc1ccc(NC(=O)c2cc(S(=O)(=O)N3CCOCC3)ccc2N2CCCC2)cc1,-13%,i
CC(C)CCC(CCNCc1ccccn1)c1ccc(Cl)cc1 (configuration not stated),-12%,?
N#CCCn1cc(C(=O)Nc2ccccc2Cl)c(-c2ccc([N+](=O)[O-])cc2)n1,-3%,-19%
COc1ccc(CCNC(=O)CCCc2ccccc2)cc1,-14%,-5%
CCN1C(=O)C(Cc2nc3ccccc3c(=O)n2C)c2cc(C)ccc21 (configuration not stated),-15%,-8%
Cc1sc2nc(SCC(=O)N3CCOCC3)[nH]c(=O)c2c1-c1ccccc1,-9%,-17%
CCn1c(CCNC(=O)c2ccc(OC)cc2)nnc1SCc1ccc(Cl)c(Cl)c1,?,?

Another view of some results above:
Values run as follows: VACV Venus inh | Vaccinia mCherry
> N#Cc1ccc(NC(=O)c2cc(S(=O)(=O)N3CCOCC3)ccc2N2CCCC2)cc1
 : -13% | i
> Cc1ccc(CN2C(=O)CSC2c2cccnc2)cc1 (configuration not stated)
 : -18% | i
> CC(=O)N1N=C(c2ccccc2OC(=O)/C=C/c2ccccc2)CC1c1ccccc1 (configuration not stated)
 : -20% | -1%
> N#CCCn1cc(C(=O)Nc2ccccc2Cl)c(-c2ccc([N+](=O)[O-])cc2)n1
 : -3% | -19%
> Oc1ccc(Cc2ccccc2Cl)c(O)c1
 : -15% | -27%
> CCn1c(CCNC(=O)c2ccc(OC)cc2)nnc1SCc1ccc(Cl)c(Cl)c1
 : ? | ?

New compounds follow
Molecule,VACV Venus inh,Vaccinia mCherry
NC(=O)c1nsc(C(=O)N(CC(=O)NC2CCCCC2)c2ccc(Cl)cc2)c1N,11%,12%
O=C1CN(C(=O)CNCc2ccccc2Cl)c2ccccc2N1,-4%,24%
CCc1nnc2c(NCc3ccc(F)cc3)nc3ccccc3n12,0%,0%
Cc1cccc(-[n+]2c(C)cc(C)c3c(=O)[nH]c(=O)[nH]c32)c1,0%,-14%
Cc1cc(C)n2nc(SCC(=O)N/N=C/c3ccc(F)cc3)nc2n1,-13%,-11%
